# E coli growth: E. coli growth inhibition, primary screen, OD600; Escherichia coli growth, 23 h; active compounds read low; OD600 absorbance (concentration not given with the values); 330,000 tested, 0.21% active;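 active = OD600 absorbance below the run mean of sample wells minus 3.6 SD, in any replicate, cut at about 0.56 in these data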;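 note: stock transfer was 300 nL into about 60 µL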
# UCH37 DUB inh: inhibitors of human UCH37 deubiquitinase, primary screen, biochemical, Ub-AMC cleavage, fluorescence; inhibition, % (test concentration not listed); purified proteasome/UCH37; Ubiquitin carboxyl-terminal hydrolase isozyme L5 (Homo sapiens), Q9Y5K5; 330,000 tested, 0.33% active;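 active = mean of two replicates above 20%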;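 note: 0% = compound-free wells with enzyme and 100% = wells lacking proteasome; stock transfer was 100 nL into about 20 µL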
#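 Material: Human UCH37 enzyme supplied as purified proteasome complex | Schedule: 30 min compound-proteasome preincubation then 25 min substrate reaction, room temperature | Detection: AMC fluorescence from Ub-AMC cleavage, excitation 355 nm, emission 460 nm | Benchmarks: Wells without proteasome as full block, compound-free enzyme plus substrate as uninhibited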
# ALR H2O2 inh: inhibitors of human ALR sulfhydryl oxidase, primary screen, biochemical, H2O2 detection, HRP-luminol luminescence, single point; FAD-linked sulfhydryl oxidase ALR (Homo sapiens), P55789; purified ALR, DTT oxidation; inhibition, % (no concentration beside the values); 290,000 tested, 3.8% active;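 active = mean and each replicate at 75% or more; inconclusive = only one of the two met; inactive = neither met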;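 note: stock transfer was 7.5 nL into about 7.5 µL; 0% = neutral wells and 100% = wells with inactivated enzyme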
# Target sequence (P55789 whole entry, looked up): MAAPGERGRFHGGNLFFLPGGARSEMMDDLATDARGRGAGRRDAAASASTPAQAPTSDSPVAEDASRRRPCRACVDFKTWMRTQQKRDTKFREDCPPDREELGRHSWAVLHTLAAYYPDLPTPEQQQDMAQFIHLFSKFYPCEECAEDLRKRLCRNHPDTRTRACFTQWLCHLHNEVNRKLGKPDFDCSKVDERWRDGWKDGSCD
# rRNA inh HTS: reduced GFP signal of wild-type E. coli, primary screen, bacterial rRNA inhibitor project, GFP/RFP fluorescence, OD600, single point; GFP signal change (wild-type ribosome), % (test concentration not listed); E. coli WT GFP vs humanized-ribosome RFP mutants, 24 h; active compounds read low; DMSO median 0, no signal -100; 350,000 tested, 1.6% active;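 active = significant combined selectivity score with lowered wild-type GFP, culture density cut under 30%, mutant RFP and density less affected; inactive = any of these conditions unmet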; note: one replicate is shown; some compounds called inactive have numbers as strong as hits
# FGF22 binding: binders of human FGF22 protein, primary screen, FGF22 synaptogenesis inhibitor project, biophysical, thermal shift, single point; Fibroblast growth factor 22 (Homo sapiens), Q9HCT0; recombinant FGF22 thermal shift, SYPRO orange fluorescence; percent of sucrose octasulfate shift, DMSO zero; calls only at 9.99 µM; 340,000 tested, 1.5% active; AID 651658, 2012;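 active = melting point raised past a set limit in the mean and every replicate; inconclusive = no clear call; three in four hits are not shown here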
# Target sequence (Q9HCT0 whole entry, looked up): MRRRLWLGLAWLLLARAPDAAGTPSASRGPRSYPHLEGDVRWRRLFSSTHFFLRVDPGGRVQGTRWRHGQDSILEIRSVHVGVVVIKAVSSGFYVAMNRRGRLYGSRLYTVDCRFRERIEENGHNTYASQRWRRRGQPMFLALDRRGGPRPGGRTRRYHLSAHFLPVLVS
# HNF4A DNA FP: change in binding of human HNF4A to DNA, primary screen, biochemical, fluorescence polarization, FITC-DNA; AID 1224865, 2016; 360,000 tested, 0.3% active; activity change, % at 10 µM; 1 h; Hepatocyte nuclear factor 4-alpha (Homo sapiens), P41235; in the data active = activity change above about 30%, passing the limit was not always enough;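 note: controls were the assay level and a saturating level of protein; the project sought stronger binding though the title names inhibitors; some compounds called inactive have numbers as strong as hits; positive values seem to mean higher polarization but the record does not say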
# Beta2AR agonist: beta2AR agonists driving receptor internalization, primary screen, cell-based, FAP fluorogen, flow cytometry; 340,000 tested, 0.43% active; AID 504454, 2011; response, % (test concentration not listed); Am2.2-beta2AR cells; reference of the scale not given here;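 active = response above a set limit, near 3 SD of response in nonfluorescent compounds, cut at about 42% in these data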;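 note: stock transfer was 100 nL into about 11 µL; a reference agonist was the positive control; negative values mostly stem from fluorescent compounds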
# Target sequence (P07550 whole entry, looked up): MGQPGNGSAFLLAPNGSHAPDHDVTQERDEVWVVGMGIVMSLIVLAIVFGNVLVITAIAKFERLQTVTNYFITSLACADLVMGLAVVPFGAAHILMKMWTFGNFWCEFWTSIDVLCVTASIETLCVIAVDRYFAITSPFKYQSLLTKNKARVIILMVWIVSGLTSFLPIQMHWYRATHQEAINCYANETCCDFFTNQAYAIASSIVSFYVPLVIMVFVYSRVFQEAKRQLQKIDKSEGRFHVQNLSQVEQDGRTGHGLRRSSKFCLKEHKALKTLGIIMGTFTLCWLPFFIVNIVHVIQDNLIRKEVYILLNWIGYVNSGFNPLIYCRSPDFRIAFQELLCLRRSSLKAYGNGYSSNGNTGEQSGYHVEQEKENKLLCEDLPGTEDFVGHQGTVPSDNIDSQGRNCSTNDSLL
# rRNA inh HTS OD600: further read-out of rRNA inh HTS, marked with its call; OD600 change, %; measured here: OD600 growth;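 optical density of the mix in the first replicate; 0 = DMSO median and -100 = no signal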
# rRNA inh HTS RFP: also measured in rRNA inh HTS; calls as there; RFP signal change, %; measured here: RFP humanized mutant strains;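 first replicate; 0 = DMSO median and -100 = no signal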
# Starred values were filed as active, the others as inactive; i = inactive; ? = inconclusive; . = no result given.
SMILES,E coli growth,UCH37 DUB inh,ALR H2O2 inh,rRNA inh HTS,rRNA inh HTS OD600,rRNA inh HTS RFP,FGF22 binding,HNF4A DNA FP,Beta2AR agonist
CCOC(=O)[C@]12CCCC=C1N(Cc1ccc3c(c1)OCO3)C(=O)[C@H](CC(=O)N1CCCCC1)C2,.,.,.,-11,-9,5.7,i,-3.0,.
Cc1nnc2ccc(-c3cccc(NC(=O)c4ccc(Br)o4)c3)nn12,0.63,2.2,-4,-27,-24,-8.5,i,1.3,1
COc1ccc2c(c1)C(=O)N(c1ccccc1)C(=O)C2,0.7,-10,8,.,.,.,.,0.2,-1
O=C(CN1C(=O)CSc2ccc(S(=O)(=O)N3CCCCC3)cc21)NCc1cccnc1,0.72,1.6,-4,2,2,1.0,i,-0.1,1
Cc1cc(=O)oc(C)c1C(=O)NNC(=O)C1(C)CC1Br (stereo not drawn),0.66,2.2,-5,6,11,0.3,i,-1.6,-8
c1ccc(-c2nnnc3ccccc23)cc1,0.67,3.3,-19,-15,-21,-16,i,0.8,2
Cc1ccc(C)c(NC(=O)/C(C#N)=C/c2cn(CC(=O)NCc3ccco3)c3ccccc23)c1,0.76,-144,-5,14,15,3.0,i,0.6,-9
Cc1cccc(CN2C(=O)N/C(=C/c3cc(C)n(-c4cc(C)ccn4)c3C)C2=O)c1,0.78,-1.2,-1,.,.,.,.,3.3,10
OC(c1ccc(F)cc1)c1ncc(-c2ccc3ccccc3c2)[nH]1 (stereo not drawn),.,.,.,-59,-76,-20,i,4.7,.
c1cnc2ccc(-c3ccc4ncccc4c3)cc2c1,0.67,-31,-4,-17,-46,-16,i,3.3,-2
CCOc1ccc(NC(=O)c2ccc(F)cc2F)cc1,0.69,0.0,-7,7,9,-2.0,i,0.5,5
O=C(Nc1nnc(Cc2ccccc2)s1)Nc1ccccc1F,0.68,0.6,-8,10,14,-1.6,i,5.0,8
COc1cccc(CN2CCNC(=O)C2CC(=O)NCc2cn3ccc(C)cc3n2)c1OC (stereo not drawn),0.7,-4.6,2,14,11,4.7,i,1.0,-6
O=C(COc1ccccc1)NCC(=O)Nc1cccc2ccccc12,0.71,4.0,-35,.,.,.,.,-1.0,1
C=CCN(CC(=O)c1sc(C(=O)OCC)nc1C)c1cccc(Br)c1,0.71,2.2,-10,-3,1,-1.8,i,-3.0,7
CCc1cccc(NC(=O)CCc2c(C)nn(-c3ccc(N4CCOCC4)nn3)c2C)c1,0.66,2.5,-7,0,8,-0.6,i,-0.1,-17
C=CCn1cc(/C=N/Nc2nc3ccccc3[nH]2)c2ccccc21,.,.,65,-35,-47,12,i,-0.1,0
Cn1c(SCC(=O)NCC2CCCO2)nnc1-c1ccc(S(=O)(=O)N2CCCC2)cc1 (stereo not drawn),0.58,1.6,-13,5,5,-0.7,i,-1.3,-8
O=C(c1ccccc1)N1CCCC(c2nc3c(nnn3Cc3ccccc3)c(=O)[nH]2)C1 (stereo not drawn),0.63,3.3,0,.,.,.,.,-2.5,0
CCOc1ccc(NC(=O)COc2ccc(C(=O)N3CCC(C(N)=O)CC3)cc2OC)cc1,0.7,-0.3,-1,7,13,0.6,i,0.2,-2
CC1(c2nnnn2-c2ccc3c(c2)OCCO3)CCC(=O)N1Cc1ccc(F)cc1 (stereo not drawn),.,.,.,1,-5,0.9,i,5.2,.
Cc1ccc(NS(=O)(=O)c2ccccc2Cl)c2c1CC(C)(C)O2,0.7,2.0,11,.,.,.,.,-2.4,-1
NC(Cc1ccc(F)cc1)c1csc(Nc2ccc(C(F)(F)F)cn2)n1 (stereo not drawn),.,.,.,-54,-79,-18,i,-0.3,.
CCOC(=O)NNC(=O)C1CCC(C)CC1 (stereo not drawn),0.72,0.8,1,9,9,0.6,i,0.2,4
C=Cn1c(C(=O)O)ccc1-c1ccc(OC)cc1,0.69,0.8,6,9,8,1.7,i,-5.8,-3
CC(C)c1c(C(=O)N/N=C/c2ccc(OCc3ccccc3)cc2)nnn1-c1nonc1N,.,.,-2,1,10,-3.4,i,5.2,10
CCO[C@@H]1OC(C(=O)N2CCN(Cc3ccccc3)CC2)=C[C@H](c2ccc(Br)cc2)[C@H]1CCCO,.,2.8,-6,.,.,.,.,0.4,3
CN(C)Cc1c(C(=O)N/N=C/C=C/c2ccccc2)nnn1-c1nonc1N,.,.,-1,5,9,-3.5,i,0.8,-9
CCn1cc(S(=O)(=O)CC(=O)Nc2cccc(C)c2)c2ccccc21,0.7,1.2,-5,.,.,.,i,0.7,-912
COc1cccc(NC(=O)CCc2c(C)nn(-c3ccc(N4CCOCC4)nn3)c2C)c1,0.71,1.2,1,4,4,-0.2,i,12,-19
CCN(CC)S(=O)(=O)c1cccc(NC(=O)COC(=O)CNC(=O)c2cccc(F)c2)c1,0.71,4.9,4,-14,1,12,i,3.1,7
Cc1nc(CNS(=O)(=O)c2ccccc2F)cs1,0.71,0.5,2,2,9,0.1,i,-0.3,15
N#Cc1ccsc1NC(=O)CCN1C(=O)C2CCCCC2C1=O (stereo not drawn),0.65,0.1,-2,5,10,-9.6,i,6.0,6
COc1ccc(CNC(=O)CCC(=O)Nc2ccc(Cl)cc2)cc1,0.66,5.1,-25,12,8,-1.0,i,0.2,-1
COc1cc(CN2CCNC(=O)C2CC(=O)NCCCC2CCCC2)cc(OC)c1 (stereo not drawn),.,.,33,1,2,5.4,i,1.0,1
CC(O)(c1cccc(F)c1)c1nc(-c2ccc3ccccc3c2)cs1 (stereo not drawn),.,.,.,-33,-42,22,i,-2.6,.
O=C(Nc1ccc(-c2nc3cccnc3s2)cc1)c1ccco1,0.69,-46,1,-6,-9,-2.8,i,1.6,5
Cc1c(NC(=O)CCCOc2ccccc2)cccc1[N+](=O)[O-],0.73,3.7,-1,2,3,-4.0,.,4.3,-3
O=[N+]([O-])c1ccc(CSc2ccc(S(=O)(=O)N3CCCCC3)cn2)cc1,0.67,3.0,-3,-5,4,-1.0,i,0.7,-1
CCN(CC)S(=O)(=O)N1CCC(C(=O)NC2CCCC2)CC1,0.71,2.4,-8,.,.,.,.,-0.7,-3
C/C(=N/NC(=O)c1ccc(Br)s1)c1ccncc1,.,.,-2,2,6,1.4,i,2.0,-1
CCCN(CCC)C(=S)NC1CC2C=CC1C2 (stereo not drawn),0.65,2.4,-18,-7,-1,-2.9,i,257,-2
Cn1cc(C(=O)c2ccc(Cl)cc2Cl)cc1C(=O)N/N=C(\N)COc1ccccc1,.,.,-21,.,.,.,.,2.4,-3
CCN(CC)S(=O)(=O)c1ccc(OCC(=O)NC(=O)c2ccccc2OC)c([N+](=O)[O-])c1,0.7,2.6,-6,6,12,2.0,i,1.5,3
CCN(CC)CCNc1ncnc2c1sc1nc(N3CCOCC3)c3c(c12)CC(C)(C)SC3,0.72,-8.6,-59,.,.,.,.,-0.8,27
CC(C)Cn1c(-c2ccc(Br)o2)n[nH]c1=S,0.7,4.3,18,.,.,.,.,-4.1,-2
O=c1[nH]c(C2CCCN(S(=O)(=O)c3ccc(F)cc3)C2)nc2c1nnn2Cc1ccccc1 (stereo not drawn),0.7,3.8,-3,13,6,-10,i,-1.7,5
COC(=O)C(C)Sc1nc2c(c(=O)[nH]c(=O)n2C)n1CCC(C)C (stereo not drawn),0.73,4.1,-3,.,.,.,.,-8.1,6
Cc1c(C(=O)OCCN2CCCCC2)oc2ccccc12,0.68,1.3,-27,.,.,.,.,-6.0,-14
CCCCC(=O)OCC(=O)Nc1ccc(SC(F)F)cc1,0.7,3.7,98*,-5,7,0.0,i,-2.9,10
Fc1ccc(NC(=S)Nc2cccnc2)cc1Cl,0.54,3.4,9,-54,-80,-14,i,-0.8,5
CCOc1cc(S(=O)(=O)n2ccnc2)ccc1Cl,0.68,1.7,.,6,12,2.7,i,2.4,0
COc1ccc(C(O)c2ncc(-c3ccccc3Cl)[nH]2)cc1F (stereo not drawn),.,.,.,3,-4,-3.0,i,-0.8,.
Cc1c(NC(=O)CCC2CCCCC2)cc(C(=O)N2CCOCC2)cc1[N+](=O)[O-],0.65,2.3,-11,11,23,-0.8,i,2.2,-6
Cc1noc(C)c1C(=O)NCc1ccccc1Br,0.72,2.4,0,6,10,0.4,i,-1.3,-2
S=c1[nH]nc(-c2cccnc2)n1C1CCCCC1,0.68,0.4,?,20,-3,6.0,i,-0.9,2
Cc1cc(C)nc(NC(N)=S)n1,0.72,4.2,.,9,3,-3.8,i,-0.3,1
COc1ccc(Cl)cc1NC(=O)CC(=O)Nc1cc(Cl)ccc1OC,0.73,-1.8,2,21,16,6.2,i,-0.2,5
Cc1ccc2cc(CN(CC3CCCO3)C(=S)Nc3ccccc3)c(=O)[nH]c2c1C (stereo not drawn),0.73,1.4,-10,.,.,.,.,-4.4,-7
CC[C@@H]1CC2=C(C(=O)OC(C)(C)O2)[C@H](c2ccc(Cl)cc2)O1,.,.,.,-19,-16,3.2,i,4.0,.

# A second format for seven compounds above.
smiles | E coli growth | UCH37 DUB inh | ALR H2O2 inh | rRNA inh HTS | rRNA inh HTS OD600 | rRNA inh HTS RFP | FGF22 binding | HNF4A DNA FP | Beta2AR agonist
Cc1cc(C)nc(NC(N)=S)n1 | 0.72 | 4.2 | . | 9 | 3 | -3.8 | i | -0.3 | 1
C=Cn1c(C(=O)O)ccc1-c1ccc(OC)cc1 | 0.69 | 0.8 | 6 | 9 | 8 | 1.7 | i | -5.8 | -3
CCOc1ccc(NC(=O)COc2ccc(C(=O)N3CCC(C(N)=O)CC3)cc2OC)cc1 | 0.7 | -0.3 | -1 | 7 | 13 | 0.6 | i | 0.2 | -2
Cc1noc(C)c1C(=O)NCc1ccccc1Br | 0.72 | 2.4 | 0 | 6 | 10 | 0.4 | i | -1.3 | -2
CCN(CC)S(=O)(=O)c1cccc(NC(=O)COC(=O)CNC(=O)c2cccc(F)c2)c1 | 0.71 | 4.9 | 4 | -14 | 1 | 12 | i | 3.1 | 7
CCCN(CCC)C(=S)NC1CC2C=CC1C2 (stereo not drawn) | 0.65 | 2.4 | -18 | -7 | -1 | -2.9 | i | 257 | -2
O=C(Nc1nnc(Cc2ccccc2)s1)Nc1ccccc1F | 0.68 | 0.6 | -8 | 10 | 14 | -1.6 | i | 5.0 | 8

# Next part.
SMILES,E coli growth,UCH37 DUB inh,ALR H2O2 inh,rRNA inh HTS,rRNA inh HTS OD600,rRNA inh HTS RFP,FGF22 binding,HNF4A DNA FP,Beta2AR agonist
Cc1cccc(C)c1Oc1nc(-c2ccccc2)ncc1S(=O)(=O)c1ccccc1,0.76,2.3,-12,.,.,.,.,1.0,3
CC(=O)Nc1cc(NC(C)=O)c2nc(N)sc2c1,0.76,4.7,-10,.,.,.,.,3.9,6
CCN1CCN(c2c(S(=O)(=O)c3ccc(C)c(C)c3)cnc3ccc(F)cc23)CC1,0.74,0.2,-12,4,-3,-3.2,i,0.6,14
CCCN1C2CCCC1CC(NC(=O)c1cc(OC)c(OC)c(OC)c1)C2 (stereo not drawn),0.67,-0.2,-1,.,.,.,.,4.3,5

# Bioassay records from PubChem BioAssay.

# An excerpt; count on the stated rates, not on these rows.
